Screening results (PubChem BioAssay)
Insulin prom inh: TRM-6 insulin promoter activity inhibition; TRM-6 cells (human fetal islet line), insulin promoter-eGFP reporter, imaging; reporter expression induced with tamoxifen; inhibition, % at 2 µM; hit rate 0.9% among 130,000; AID 1273;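 active = inhibition above the mean plus 3 SD, with well images judged a real hit on visual review, cut at about 60% in these data, passing the limit was not always enough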
HSV augment: increases HSV replication in cells | HSV replication augmentation in cells, fold increase | maximum fold increase | hit rate 0.005% among 220,000 | AID 1956;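 active = peak rise of 1.5-fold or more in the series; tested in PC3 cells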;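 note: first round at 10 µM; read as green reporter fluorescence; hits show the peak of a series up to 25 µM; 1 = signal of infected wells without compound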
RGS16-Gao HTS: modulates binding between human RGS16 and Galphao; binding response (% of control), % at 10 µM; hit rate 0.38% among 220,000; AID 1441; bead-based flow cytometry RGS16-Galphao binding, fluorescence; actives lie on both sides; O15492+P09471;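 active = below 25% or above 175%, edge rows of some plates excepted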;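 note: Galphao activated by GDP with aluminum fluoride before binding; 100% = wells without compound and 0% = beads without RGS; some results beyond the cut were filed as inactive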
Target sequence (O15492 whole entry, looked up): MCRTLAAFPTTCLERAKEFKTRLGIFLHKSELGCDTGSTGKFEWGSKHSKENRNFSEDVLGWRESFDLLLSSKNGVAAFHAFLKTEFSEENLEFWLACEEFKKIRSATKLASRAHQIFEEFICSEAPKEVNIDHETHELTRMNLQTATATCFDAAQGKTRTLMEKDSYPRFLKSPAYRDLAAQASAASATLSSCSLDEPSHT
Target sequence (P09471 whole entry, looked up): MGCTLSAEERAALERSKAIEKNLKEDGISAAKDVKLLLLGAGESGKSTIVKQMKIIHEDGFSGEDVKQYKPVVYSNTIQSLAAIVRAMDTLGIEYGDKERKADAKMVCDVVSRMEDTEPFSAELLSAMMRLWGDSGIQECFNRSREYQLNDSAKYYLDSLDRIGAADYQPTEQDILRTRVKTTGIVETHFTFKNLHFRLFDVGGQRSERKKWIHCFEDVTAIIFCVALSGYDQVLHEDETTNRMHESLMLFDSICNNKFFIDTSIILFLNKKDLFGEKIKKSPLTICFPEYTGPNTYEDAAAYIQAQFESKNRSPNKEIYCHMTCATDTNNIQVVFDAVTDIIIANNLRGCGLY
PKD1 inh: inhibitors of human PKD1 kinase; PKD1 kinase fluorescence polarization assay; AID 797; inhibition, %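 (about 10 µM by stock and volumes)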; hit rate 0.056% among 200,000;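 active = inhibition of 50% or more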;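 note: controls were vehicle for no effect and a reference inhibitor for full effect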
GALR2 ag: GALR2 (human) receptor agonism | GALR2-expressing cells, agonist activation read-out | O43603 | hit rate 0.48% among 140,000 | AID 803 | activation, %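 (tested at 5 µM)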;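 active = above mean plus 3 SD of all compounds, about 5% in these data, not always enough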;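 note: 0% = vehicle buffer wells and 100% = reference agonist at full effect; tested in CHO reporter cells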
Target sequence (O43603 whole entry, looked up): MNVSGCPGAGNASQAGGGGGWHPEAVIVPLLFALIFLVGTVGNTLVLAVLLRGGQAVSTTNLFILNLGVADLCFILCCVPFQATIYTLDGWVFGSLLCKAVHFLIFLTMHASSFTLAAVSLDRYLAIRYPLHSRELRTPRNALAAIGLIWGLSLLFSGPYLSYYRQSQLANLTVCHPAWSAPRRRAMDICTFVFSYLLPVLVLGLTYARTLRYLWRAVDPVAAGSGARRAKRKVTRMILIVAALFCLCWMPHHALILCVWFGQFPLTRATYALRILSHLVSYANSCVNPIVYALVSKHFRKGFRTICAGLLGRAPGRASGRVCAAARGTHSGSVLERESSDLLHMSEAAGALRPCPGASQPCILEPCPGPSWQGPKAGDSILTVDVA
Insulin prom inh cell count: second read-out of Insulin prom inh, no call of its own (marks repeat the call); normalized cell count, %; measured here: cell count, toxicity; reference of the scale not given here;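 cells exposed to compound for 48 h; stained nuclei by imaging scaled within each plate; lower means fewer cells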
HSV augment primary fold: further read-out of HSV augment, marked with its call; fold increase; compound at 10 µM; measured here: primary screen fold increase 10 uM; tested in PC3 cells;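 GFP signal in the first replicate; 1 = infected wells without compound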
Starred values were filed as active, the others as inactive; i = inactive; / = not tested or not shown.

molecule | PKD1 inh | HSV augment | HSV augment primary fold | Insulin prom inh | RGS16-Gao HTS | Insulin prom inh cell count | GALR2 ag
CC(=O)N1CCc2c(sc(NC(=O)c3ccc([N+](=O)[O-])o3)c2C#N)C1 | 0 | i | 0.67 | -274 | 87 | 10 | /
CCCSc1nc2c(cnn2-c2ccccc2)c(=O)n1N | / | i | 0.91 | / | 99 | / | /
CC1CCC2C(=O)N(c3ccc(C(=O)NCc4ccccc4)cc3)C(=O)C2C1 (stereo unspecified) | -14 | i | 1 | -28 | 111 | 80 | -0.3
O=C(O)CCCC(=O)Nc1ccc(N=Nc2ccccc2)cc1 | 11 | i | 0.92 | / | 96 | / | /
COc1cc(CNCc2cccnc2)ccc1OCC(=O)NC1CCCCC1 | -3 | i | 0.84 | -25 | 95 | 107 | /
CCC(C)(C)NC(=O)C(c1ccc(F)cc1)N(Cc1ccco1)C(=O)c1cnccn1 (stereo unspecified) | -10 | i | 0.97 | -67 | 102 | 88 | 0.0
Cc1ccc(C)c(OCC(=O)NCC(C)C)c1C | 8 | i | 0.94 | -113 | 96 | 119 | -0.7
O=C(CSC1=NCCS1)Nc1ccccc1F | -10 | i | 0.95 | / | 99 | / | -0.4
CCOC(=O)N1CCN(C/C(C)=C/c2ccccc2)CC1 | 2 | i | 1 | 20 | 131 | 66 | 0.3
O=C(COC(=O)C1CCCN1C(=O)c1cccs1)Nc1ccc2c(c1)OCO2 (stereo unspecified) | -19 | i | 0.97 | -47 | 86 | 62 | -2.5
COc1ccc(-c2nc(-n3c(C)c(C(C)=O)c(C(C)=O)c3C)sc2C)cc1OC | -4 | i | 0.9 | -59 | 93 | 67 | 0.6
CC(=O)c1ccccc1NC(=O)Cn1c(=O)cnc2ccccc21 | -10 | i | 1.1 | -12 | 92 | 65 | -0.5
O=C(c1ccc(CNS(=O)(=O)c2ccc(Br)cc2)cc1)N1CCCC1 | -2 | i | 1.1 | / | 100 | / | /
CC(C)NC(=O)CSc1nnc(-c2ccc3ncccc3c2)n1C | / | i | 0.97 | / | 99 | / | /
O=C(N/N=C\c1ccc(Cl)s1)C1COc2ccccc2O1 (stereo unspecified) | / | i | 0.79 | / | 100 | / | /
Cc1c(NC(=O)C2CC(c3ccc(F)cc3)=NO2)c(=O)n(-c2ccccc2)n1C (stereo unspecified) | -13 | i | 0.94 | / | 102 | / | -2.5
CN1CCN(S(=O)(=O)c2ccc(C(=O)Nc3ccccc3)cc2)CC1 | -7 | i | 1 | 17 | 103 | 140 | -1.2
CCOCCCNC(=O)c1ccc(OC)cc1 | -1 | i | 0.77 | -36 | 227 | 101 | -1.4
O=C(O)c1ccc(CSc2nnc(-c3ccncc3)n2CC2CCCO2)cc1 (stereo unspecified) | 1 | i | 0.92 | 22 | 101 | 114 | -1.1
COc1ccc(OC)c(S(=O)(=O)NCCOC23CC4CC(CC(C4)C2)C3)c1 | 1 | i | 1 | -12 | 107 | 68 | -1.4
CN(Cc1ccc(-n2cccn2)cc1)Cc1nc(-c2cnccn2)no1 | -2 | i | 1.1 | / | 103 | / | /
COc1cc(OC)cc(C(=O)NC(=S)NNC(=O)c2cnccn2)c1 | 2 | i | 1 | / | 99 | / | 0.5
COc1cc(C(=O)NCc2nnc(SCC(=O)N3CCC(C)CC3)o2)cc(OC)c1OC | -6 | i | 0.87 | 21 | 97 | 87 | -1.7
CC(=O)c1ccc(C(=O)N2CCCC(C(=O)c3cc(F)ccc3F)C2)s1 (stereo unspecified) | -9 | i | 0.96 | / | 110 | / | /
COc1ccc(NC(=S)N2CCCC2)c(OC)c1 | 1 | i | 0.98 | / | 100 | / | /
CC(=O)c1ccc(N2CCN(C(=O)c3n[nH]c4ccccc34)CC2)cc1 | 2 | i | 0.83 | 33 | 107 | 123 | /
O=C1N/C(=C/c2ccc(Br)cc2)C(O)=C1C=NCc1ccccc1 | -11 | i | 0.6 | -32 | 103 | 55 | 0.2
O=C(c1cc2nc(-c3cccs3)cc(C(F)(F)Cl)n2n1)N1CCCc2ccccc21 | -7 | i | 0.85 | / | 101 | / | -1.0
Cc1ccc(Oc2nc3ccccc3n3c(C)nnc23)cc1 | -2 | i | 0.92 | / | 99 | / | 0.5
Cc1noc(C)c1C(=O)OCC(=O)C12CC3CC(CC(C3)C1)C2 | -7 | i | 1.1 | / | 99 | / | /
c1ccc(CCN2CN=C(Nc3nc4ccccc4s3)NC2)cc1 | / | i | 1.1 | / | 101 | / | /
O=C(CSc1nncn1-c1ccccc1)c1c[nH]c2ccccc12 | -8 | i | 0.96 | 35 | 104 | 116 | /
CNS(=O)(=O)c1cccc(C(=O)OCC(=O)/C=C2/N(C)c3ccccc3C2(C)C)c1 | 1 | i | 0.98 | -129 | 100 | 138 | -1.0
COc1ccccc1N=NC1=C(O)CC(C)(C)CC1=O | -7 | i | 0.93 | -50 | 102 | 122 | -2.7
CCCN1C(=O)C2(SC(NC(C)=O)=NN2C(C)=O)c2cc(C)ccc21 (stereo unspecified) | -6 | i | 1 | -13 | 115 | 127 | /
CCOCCCNC(=O)c1c(N)n(-c2ccc3c(c2)OCO3)c2nc3ccccc3nc12 | / | i | 0.94 | / | 99 | / | /
Cc1cc(C)c(NC(=O)c2ccc[n+](Cc3ccc([N+](=O)[O-])cc3)c2)c(C)c1 | -1 | i | 0.94 | -81 | 93 | 131 | -2.3
Cc1cc(C)nc(Nc2n[nH]c(-c3ccc(N)cc3)n2)n1 | -4 | i | 0.92 | / | 86 | / | 1.5
O=c1[nH][nH]c(-c2ccccc2O)c1C(C[N+](=O)[O-])c1ccccc1 (stereo unspecified) | -9 | i | 0.84 | -7 | 105 | 109 | -0.1
OC(CNCC1CCCO1)Cn1c2ccc(Cl)cc2c2cc(Cl)ccc21 (stereo unspecified) | 4 | i | 0.68 | -89 | 101 | 113 | 2.8
Cc1ccc(-c2nnc(SCC(=O)N/N=C/c3ccc(C)s3)n2-c2ccc(C)cc2)cc1 | -2 | i | 0.81 | / | 99 | / | 0.1
CC1(C)CC(=O)C(C(C2=C(O)CC(C)(C)CC2=O)c2ccco2)C(=O)C1 (stereo unspecified) | -1 | i | 0.84 | / | 92 | / | -2.4
COc1cc(CC(C#N)(CO)c2nc3ccccc3[nH]2)ccc1OC(F)F (stereo unspecified) | 4 | i | 1 | -11 | 173 | 71 | -0.5
COC(=O)CSc1nc2c(c(=O)[nH]c(=O)n2C)n1CCC(C)C | -7 | i | 1 | 44 | 106 | 76 | -2.1
CCn1c2ccccc2c2nnc(SCc3ccccc3)nc21 | -14 | i | 0.79 | / | 96 | / | 0.3
CCCCn1nc2cc(C(=O)NCc3cc(C(F)(F)F)cc(C(F)(F)F)c3)ccc2c1OC | -9 | i | 0.93 | -11 | 110 | 116 | -0.4
O=C(O)c1cc(-c2ccco2)nn1-c1ccc(Cl)cc1 | 3 | i | 1.1 | / | 89 | / | /
Cc1cc(C(C)(C)C)cc(S(=O)(=O)NCC(=O)O)c1C | -3 | i | 0.85 | 0 | 98 | 98 | -2.0
N#Cc1ccc(C23CC4(C2)[C@H](CN(Cc2ccc(-c5ccccc5)cc2)[C@@H]4c2ccccc2)C3c2ccc(Cl)nc2)cc1 (stereo partly specified) | / | i | 1 | / | 99 | / | /
N#Cc1cn(CC(=O)NCCc2c[nH]c3ccccc23)c2ccccc12 | 0 | i | 0.85 | -9 | 101 | 142 | -0.8
Cc1ccc(NC(=O)COC(=O)COc2ccc(Cl)cc2)c([N+](=O)[O-])c1 | -1 | i | 0.88 | -264 | 104 | 66 | -0.8
O=C(CNC(=O)c1cccs1)NCC(=O)OCc1ccc(Cl)cc1 | -8 | i | 0.67 | 45 | 107 | 81 | -1.1
CC1=NN(C(=O)CCc2ccccc2O)C(O)(C(F)(F)F)C1 (stereo unspecified) | -6 | i | 0.94 | -24 | 40 | 43 | -0.3
CCN1CCN(C(=O)c2cc3c(=O)n(C)c4ccccc4c3n2C)CC1 | -13 | i | 1.3 | / | 102 | / | 0.8
Cc1ccc(C)c2c1c1ccccc1n2C | / | i | 0.88 | / | 98 | / | /
COc1ccc(NC(=O)c2cn(CCC#N)nc2-c2cccs2)cc1 | 9 | i | 0.91 | 35 | 104 | 118 | -1.2

Further compounds follow.
molecule | PKD1 inh | HSV augment | HSV augment primary fold | Insulin prom inh | RGS16-Gao HTS | Insulin prom inh cell count | GALR2 ag
CCOc1ccc(-c2nnc(N)o2)cc1 | -4 | i | 1 | -19 | 99 | 103 | -1.2
Cc1nn(C)c(Oc2cccc(C(F)(F)F)c2)c1C#N | 1 | i | 0.82 | / | 101 | / | /
CC(NC(=O)COC(=O)c1ccc2c(c1)S(=O)(=O)N=C1CCCCCN12)C12CC3CC(CC(C3)C1)C2 (stereo unspecified) | -2 | i | 1 | / | 99 | / | -0.3
CCN(CC)S(=O)(=O)c1ccc(OC)c(NC(=O)/C=C/c2ccco2)c1 | / | i | 1.1 | / | 88 | / | /
CCN(CC)S(=O)(=O)c1ccc(S(=O)(=O)N(CC(=O)Nc2ccccc2)Cc2ccco2)cc1 | -10 | i | 1.1 | 38 | 164 | 124 | -3.8
CCC(CC)NC(=O)CCCSc1nc2ccccc2[nH]1 | 2 | i | 1.1 | -50 | 100 | 56 | /
CCC1(CC)C(=O)NC(=O)NC1=Nc1ccccc1 | 1 | i | 1.1 | / | 37 | / | -1.7

Molecules listed so far containing an aryl methoxy group, in the order listed:
molecule | PKD1 inh | HSV augment | HSV augment primary fold | Insulin prom inh | RGS16-Gao HTS | Insulin prom inh cell count | GALR2 ag
COc1cc(CNCc2cccnc2)ccc1OCC(=O)NC1CCCCC1 | -3 | i | 0.84 | -25 | 95 | 107 | /
COc1ccc(-c2nc(-n3c(C)c(C(C)=O)c(C(C)=O)c3C)sc2C)cc1OC | -4 | i | 0.9 | -59 | 93 | 67 | 0.6
CCOCCCNC(=O)c1ccc(OC)cc1 | -1 | i | 0.77 | -36 | 227 | 101 | -1.4
COc1ccc(OC)c(S(=O)(=O)NCCOC23CC4CC(CC(C4)C2)C3)c1 | 1 | i | 1 | -12 | 107 | 68 | -1.4
COc1cc(OC)cc(C(=O)NC(=S)NNC(=O)c2cnccn2)c1 | 2 | i | 1 | / | 99 | / | 0.5
COc1cc(C(=O)NCc2nnc(SCC(=O)N3CCC(C)CC3)o2)cc(OC)c1OC | -6 | i | 0.87 | 21 | 97 | 87 | -1.7
COc1ccc(NC(=S)N2CCCC2)c(OC)c1 | 1 | i | 0.98 | / | 100 | / | /
COc1ccccc1N=NC1=C(O)CC(C)(C)CC1=O | -7 | i | 0.93 | -50 | 102 | 122 | -2.7
COc1cc(CC(C#N)(CO)c2nc3ccccc3[nH]2)ccc1OC(F)F (stereo unspecified) | 4 | i | 1 | -11 | 173 | 71 | -0.5
CCCCn1nc2cc(C(=O)NCc3cc(C(F)(F)F)cc(C(F)(F)F)c3)ccc2c1OC | -9 | i | 0.93 | -11 | 110 | 116 | -0.4
COc1ccc(NC(=O)c2cn(CCC#N)nc2-c2cccs2)cc1 | 9 | i | 0.91 | 35 | 104 | 118 | -1.2
CCN(CC)S(=O)(=O)c1ccc(OC)c(NC(=O)/C=C/c2ccco2)c1 | / | i | 1.1 | / | 88 | / | /
